RGS16-Gao HTS = modulators of RGS16 binding to Galphao, primary screen, biochemical, human proteins, multiplexed bead flow cytometry | Regulator of G-protein signaling 16 (Homo sapiens) + Guanine nucleotide-binding protein … | bead-based flow cytometry RGS16-Galphao binding, fluorescence; actives lie on both sides | binding response (% of control), % at 10 µM | actives 0.38% (n = 220,000);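 active means below 25% or above 175%, edge rows of some plates excepted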;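 further: Galphao activated by GDP with aluminum fluoride before binding; 100% = wells without compound and 0% = beads without RGS; some results beyond the cut were filed as inactive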
INS promoter inh = inhibitors of insulin promoter-driven GFP, primary screen, imaging, TRM-6 cells (human fetal islet line), eGFP reporter, cell count | reporter expression induced with tamoxifen | inhibition, % at 2 µM | actives 0.9% (n = 130,000);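 active means inhibition above the mean plus 3 SD, with well images judged a real hit on visual review, cut at about 60% in these data, passing the limit was not always enough; inconclusive means inhibition over the cutoff but images rejected on review; inactive means inhibition not above the cutoff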
HSV replic up = enhancers of HSV replication in host cells, fold increase, host cell viability; HSV replication augmentation in cells; maximum fold increase; actives 0.005% (n = 220,000);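 active means peak rise of 1.5-fold or more in the series; inconclusive means self-fluorescent or not available for retest; tested in PC3 cells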;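 further: first round at 10 µM; read as green reporter fluorescence; hits show the peak of a series up to 25 µM; 1 = signal of infected wells without compound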
GALR2 ag = GALR2 receptor agonists, primary screen, cell-based; Galanin receptor type 2 (Homo sapiens), O43603; GALR2-expressing cells, agonist activation read-out; activation, %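 (tested at 5 µM)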; actives 0.48% (n = 140,000); AID 803, 2007;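 active means above mean plus 3 SD of all compounds, about 5% in these data, not always enough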;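 further: 0% = vehicle buffer wells and 100% = reference agonist at full effect; tested in CHO reporter cells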
PKD1 inh = inhibitors of human PKD1 kinase, biochemical, fluorescence polarization. PKD1 kinase fluorescence polarization assay. inhibition, %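 (about 10 µM by stock and volumes)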. Serine/threonine-protein kinase D1 (Homo sapiens), Q15139. actives 0.056% (n = 200,000);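 active means inhibition of 50% or more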;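 further: controls were vehicle for no effect and a reference inhibitor for full effect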
Target sequence (Q15139 whole entry, looked up): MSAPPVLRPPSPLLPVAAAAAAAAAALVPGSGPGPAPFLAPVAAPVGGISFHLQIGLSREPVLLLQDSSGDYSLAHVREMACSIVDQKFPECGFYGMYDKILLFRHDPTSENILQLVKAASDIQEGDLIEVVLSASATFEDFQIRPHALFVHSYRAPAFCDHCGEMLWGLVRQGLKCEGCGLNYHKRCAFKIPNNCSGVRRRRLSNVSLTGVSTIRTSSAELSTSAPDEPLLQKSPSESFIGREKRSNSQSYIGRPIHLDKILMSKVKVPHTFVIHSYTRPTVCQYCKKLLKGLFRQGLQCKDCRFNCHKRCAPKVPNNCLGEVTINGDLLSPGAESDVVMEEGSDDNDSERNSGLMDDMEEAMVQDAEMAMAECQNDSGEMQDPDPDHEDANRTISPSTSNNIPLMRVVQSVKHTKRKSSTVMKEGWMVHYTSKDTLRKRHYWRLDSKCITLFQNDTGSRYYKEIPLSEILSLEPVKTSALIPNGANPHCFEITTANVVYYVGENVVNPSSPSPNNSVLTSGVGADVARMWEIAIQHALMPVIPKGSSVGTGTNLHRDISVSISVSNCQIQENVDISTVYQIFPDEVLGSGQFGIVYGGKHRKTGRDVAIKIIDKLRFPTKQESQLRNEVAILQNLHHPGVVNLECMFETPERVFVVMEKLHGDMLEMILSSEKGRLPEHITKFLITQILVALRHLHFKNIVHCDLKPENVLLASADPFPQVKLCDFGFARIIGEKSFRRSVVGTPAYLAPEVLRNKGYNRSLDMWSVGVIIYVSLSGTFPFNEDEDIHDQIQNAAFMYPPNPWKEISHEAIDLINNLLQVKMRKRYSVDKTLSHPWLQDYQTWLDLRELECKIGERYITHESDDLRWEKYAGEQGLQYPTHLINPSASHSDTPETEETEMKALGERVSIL
INS promoter inh cell count = second read-out of INS promoter inh, no call of its own (marks repeat the call); normalized cell count, %; measured here: cell count, toxicity; reference of the scale not given here;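 cells exposed to compound for 48 h; stained nuclei by imaging scaled within each plate; lower means fewer cells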
HSV replic up primary fold = recorded beside HSV replic up, whose call it bears; fold increase; compound at 10 µM; measured here: primary screen fold increase 10 uM; tested in PC3 cells;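 GFP signal in the first replicate; 1 = infected wells without compound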
Numbers without * were called inactive; i = inactive; ? = inconclusive; · = no result given.

SMILES | RGS16-Gao HTS | INS promoter inh | INS promoter inh cell count | HSV replic up | HSV replic up primary fold | GALR2 ag | PKD1 inh
Cc1ccc(C)c(NC(=O)CCCCCCCCCCC2COCCO2)c1 (stereo unspecified) | 104 | · | · | i | 1.1 | -0.8 | 4
O=C(Nc1ccc(Cl)cc1C(=O)Nc1ccc(Br)cn1)c1ccco1 | 99 | -356 | 55 | i | 1 | -1.2 | 4
Cc1ccccc1NC(=O)C(C#N)Cc1cccnc1 (stereo unspecified) | 113 | -14 | 98 | i | 0.86 | 1.2 | 4
Cc1cc(C)n2cc(CSc3nnc(N)s3)nc2n1 | 99 | · | · | i | 0.99 | -2.7 | -6
CCN1/C(=C\C=C2\C(=O)N(c3ccccc3)C(=S)N2C)Sc2ccccc21 | 97 | · | · | i | 0.97 | · | -3
Cc1nn(C)c(Oc2ccccc2)c1CCNC(=O)C(C)(C)C | 116 | · | · | i | 1.1 | · | -1
COc1cc(C(=O)O/N=C(\N)c2cccc([N+](=O)[O-])c2)cc(OC)c1OC | 96 | · | · | i | 0.97 | · | ·
CCN1CCN(CCOc2ccc(Br)cc2C)CC1 | 110 | · | · | i | 1 | · | 1
O=C(NCc1ccccn1)c1ccc(Cl)c(S(=O)(=O)N2CCCCC2)c1 | 94 | · | · | i | 1.1 | · | -4
Cc1sc(-c2ccccn2)nc1OC(=O)c1ccc(F)cc1F | 100 | · | · | i | 1 | · | 5
Cc1nc(NC(=O)CCc2ccccc2)ccc1Br | 74 | -83 | 20 | i | 0.98 | -0.4 | 2
COc1ccc(-c2nn(CCC(=O)O)cc2CCC(=O)O)cc1 | 85 | 25 | 117 | i | 0.88 | -1.1 | 7
O=C(c1cc(Sc2cccc(Cl)c2)nc2ccccc12)N1CCN(c2ccccn2)CC1 | 111 | -136 | 133 | i | 0.85 | · | -3
CC1CCN(c2ccc(/C=N/n3nnnc3N)cc2[N+](=O)[O-])CC1 | 38 | 2 | 91 | i | 0.86 | -2.4 | -4
CC1(C)CC(CCC(=O)Nc2ccccc2Cl)C(=O)O1 (stereo unspecified) | 97 | 15 | 119 | i | 0.88 | -1.4 | 6
COC(=O)N/N=C/c1cc(Cl)cc(Cl)c1OCc1ccccc1F | 107 | 5 | 66 | i | 0.95 | -1.9 | -14
COc1ccc(CCN=C(N)NS(=O)(=O)c2ccc3ccccc3c2)cc1 | 101 | 13 | 122 | i | 0.94 | -1.5 | -16
CCN(CC)C(=O)N1CCN(Cc2ccc3c(c2)OCO3)CC1 | 96 | -8 | 111 | i | 0.95 | · | 0
C[C@]12CC[C@@H]3c4ccc(O)cc4CC[C@H]3[C@@H]1CC[C@@H]2O | 102 | -95 | 60 | i | 0.99 | -0.5 | 3
Cc1ccc(CN2CCN(Cc3cn[nH]c3C3CCCCC3)CC2CCO)cc1 (stereo unspecified) | 100 | · | · | i | 0.91 | · | 2
CC(C)c1ccc(/C=C/C(=O)Nc2ccc(CN3CCOCC3)cc2)cc1 | 108 | · | · | i | 0.92 | · | ·
Cc1ccc(N2C(=O)/C(=C\c3ccco3)SC2=S)cc1 | 98 | 3 | 94 | i | 1.1 | -0.2 | -9
CC(=O)Nc1ccc(S(=O)(=O)N2CCc3ccccc3C2)cc1 | 94 | -24 | 116 | i | 1 | -2.2 | -3
CCCn1c(SCC(=O)NC(=O)NC(C)(C)C)n[nH]c1=O | 105 | 33 | 102 | i | 0.89 | · | -4
Cc1[nH]nc(NNC(=O)c2ccccc2)c1[N+](=O)[O-] | 94 | · | · | ? | · | · | ·

Look-ups from above.
Value of CC1(C)CC(CCC(=O)Nc2ccccc2Cl)C(=O)O1 (stereo unspecified) in RGS16-Gao HTS: 97
Value of O=C(Nc1ccc(Cl)cc1C(=O)Nc1ccc(Br)cn1)c1ccco1 in HSV replic up primary fold: 1

Additional entries.
SMILES | RGS16-Gao HTS | INS promoter inh | INS promoter inh cell count | HSV replic up | HSV replic up primary fold | GALR2 ag | PKD1 inh
Cc1cccc(-c2cc3nc(C)cc(N4CC(C)CC(C)C4)n3n2)c1 (stereo unspecified) | 93 | -10 | 105 | i | 0.95 | -0.4 | -3
O=C(NCCc1ccccc1)C1CC(c2ccccc2O)=NO1 (stereo unspecified) | 103 | -38 | 129 | i | 1 | -3.7 | 2
COc1ccc(-n2c(C)cc(C(=O)CSc3nnc(-c4cccs4)o3)c2C)cc1 | 98 | · | · | i | 1 | -0.6 | -1
COc1ccc(N2C(=O)CN=C2Nc2nc(C)cc(C)n2)cc1OC | 104 | -21 | 110 | i | 1 | -2.5 | -5
CCOCCCNS(=O)(=O)c1ccc2c(c1)CCN2C(=O)CC | 99 | -25 | 114 | i | 1 | -1.7 | -2
O=C(COC(=O)CCCN1C(=O)c2cccc3cccc(c23)C1=O)Nc1ccc(Cl)cc1 | 101 | · | · | i | 0.95 | -0.7 | 4
COc1ccccc1-c1cn(S(=O)(=O)c2ccc(F)cc2)nc1N | 100 | 7 | 110 | i | 1 | -3.6 | -4
C=CCNc1sc(C(=O)C(C)(C)C)c(N)c1C#N | 98 | -1 | 77 | i | 0.86 | -0.4 | -8
O=C(NCCN1CCCC1)C1COc2ccccc2O1 (stereo unspecified) | 100 | 15 | 106 | i | 0.85 | -1.6 | -10
Cc1ccc(N(C(=O)NC2CCCCC2)C2=NCCCCC2)cc1 | 100 | · | · | i | 1.1 | -1.0 | -10
CCn1cc(CNC(=O)c2cc(COc3ccc(F)cc3F)on2)cn1 | 105 | 40 | 103 | i | 0.91 | · | 0
Cn1nnnc1SCC(=O)N1CCN(C(c2ccccc2)c2ccccc2)CC1 | 96 | · | · | i | 1 | -2.3 | -11
CCN1/C(=C/c2cc[n+](CCCS(=O)(=O)[O-])c3ccccc23)Sc2ccccc21 | 97 | · | · | ? | · | · | 1
COC(=O)c1ccccc1NC(=O)N1CCN(c2ccc(F)cc2)CC1 | 97 | · | · | i | 0.96 | · | -1
CCCc1nc2ccccc2c(C(=O)OCC(=O)Nc2ccc(S(=O)(=O)N3CCOCC3)cc2)c1CC | 99 | 29 | 99 | i | 0.84 | 0.2 | 14
COC(=O)c1ccc(CNC(=O)c2c3c(nc4ccccc24)CCN(Cc2ccccc2)C3)cc1 | 94 | -80 | 100 | i | 1.2 | -1.1 | -4
CCSc1nnc(NC(=O)c2csc3c2CCC(C)C3)s1 (stereo unspecified) | 103 | 13 | 106 | i | 0.96 | -1.4 | -5
Cc1nn(C)cc1-c1csc(N)n1 | 102 | 8 | 122 | i | 0.98 | · | -2
COc1ccc(C2=NN(C(=O)CSC3=NN4CCCC(=O)N=C4S3)C(c3cccc(OC)c3OC)C2)cc1 (stereo unspecified) | 109 | 11 | 120 | i | 0.98 | · | -3
CCc1nc2sc3c(=O)n(N)cnc3c2c2c1COC(C)(C)C2 | 62 | · | · | i | 1.1 | -0.5 | -3
O/N=C(\c1ccc(Cl)cc1)c1cc2ccccc2o1 | 122 | · | · | · | · | 1.8 | 4
CCO[C@H]1OC(C(=O)N2CCN(Cc3ccc4c(c3)OCO4)CC2)=C[C@@H](c2ccc(C(F)(F)F)cc2)[C@@H]1CCCO | 94 | · | · | i | 0.91 | · | -1
COc1cc(O)c(NC(C)=O)c2nonc12 | · | · | · | i | 1.2 | -3.0 | 0
CCOC(=O)C1(Cc2cccc(F)c2)CCN(C(=O)C2CCCO2)CC1 (stereo unspecified) | 104 | · | · | i | 1 | · | -2
Cc1nc2c(-c3ccccc3)c(C)nn2c(C)c1CCC(=O)NCc1ccco1 | 98 | -70 | 23 | i | 0.81 | -1.9 | -6

Reformatted with each value named: two of the compounds above.
Cc1nc2c(-c3ccccc3)c(C)nn2c(C)c1CCC(=O)NCc1ccco1
  RGS16-Gao HTS = 98; INS promoter inh = -70; INS promoter inh cell count = 23; HSV replic up = i; HSV replic up primary fold = 0.81; GALR2 ag = -1.9; PKD1 inh = -6

CCN1/C(=C/c2cc[n+](CCCS(=O)(=O)[O-])c3ccccc23)Sc2ccccc21
  RGS16-Gao HTS = 97; INS promoter inh = ·; INS promoter inh cell count = ·; HSV replic up = ?; HSV replic up primary fold = ·; GALR2 ag = ·; PKD1 inh = 1

The listing picks up; the 3 compounds before the break are reprinted first.
SMILES | RGS16-Gao HTS | INS promoter inh | INS promoter inh cell count | HSV replic up | HSV replic up primary fold | GALR2 ag | PKD1 inh
COc1cc(O)c(NC(C)=O)c2nonc12 | · | · | · | i | 1.2 | -3.0 | 0
CCOC(=O)C1(Cc2cccc(F)c2)CCN(C(=O)C2CCCO2)CC1 (stereo unspecified) | 104 | · | · | i | 1 | · | -2
Cc1nc2c(-c3ccccc3)c(C)nn2c(C)c1CCC(=O)NCc1ccco1 | 98 | -70 | 23 | i | 0.81 | -1.9 | -6
CCOC(=O)c1cc2sccc2n1CC(=O)N1CCCc2ccccc21 | 98 | -9 | 71 | i | 0.88 | -0.5 | -10
CCn1c(CNC(=O)c2ccc(OC)cc2)nnc1SCC(=O)c1ccccc1 | 103 | -169 | 141 | i | 0.89 | -2.6 | 3
CC1=C/C(=N\NC(=O)c2cccs2)CC(C)(C)C1 | 96 | -6 | 106 | i | 0.91 | · | -10
CCn1c2ccccc2c2nnc(SCC(=O)NCc3cccs3)nc21 | 104 | -21 | 92 | i | 0.84 | -1.6 | 6
CC(=O)Nc1ccc(NC(=O)c2ccccc2C)cc1 | 104 | · | · | i | 0.7 | -4.4 | 2
Cc1ccc(OCC(=O)NC(C)c2ccccc2)c([N+](=O)[O-])n1 (stereo unspecified) | 102 | · | · | i | 1 | · | -1
CC(C)(C)C1CCC(C(=O)OCC(=O)N2CCOCC2)CC1 (stereo unspecified) | 34 | -7 | 99 | i | 1.1 | -1.4 | 0
CCCOc1ccc(C(=O)NNC(=S)NC(=O)c2ccco2)cc1 | 103 | · | · | i | 0.85 | · | ·
Cc1cc(C(=O)COC(=O)c2ccc3c(c2)NC(=O)CS3)c(C)n1CC1CCCO1 (stereo unspecified) | 102 | -8 | 104 | · | · | -1.2 | -7
COc1ccc(CCNC(=O)CSc2nc3[nH]ncc3c(=O)n2-c2ccc(Cl)cc2Cl)cc1OC | 102 | -46 | 64 | i | 0.9 | · | -4
COC(=O)c1ccc(NN=Nc2ccc(C)cc2)cc1 | 102 | -41 | 99 | i | 0.93 | -1.0 | -3
COc1cccc(N2C(=O)CC(N3CCN(CCN=CC4=C(O)CC(C)(C)CC4=O)CC3)C2=O)c1 (stereo unspecified) | 149 | · | · | i | 1.1 | · | -12
O=S(=O)(NCCc1ccccc1)c1ccc(Cl)nc1 | 106 | -12 | 115 | i | 0.99 | 0.3 | 0
CN(c1ccc(C(=O)N2CCOCC2)cc1)S(C)(=O)=O | 109 | -7 | 103 | i | 0.69 | -2.6 | 2
CC1(C)S/C(=N/N=C/c2cccs2)NC1=O | 95 | · | · | i | 0.82 | -3.6 | 4
O=C(NCC1CCCO1)C1CCN(C2CCN(Cc3cccs3)CC2)CC1 (stereo unspecified) | 109 | · | · | i | 0.93 | · | ·
C(=N\Nc1nncc2ccccc12)/c1ccccc1 | 101 | · | · | i | 1 | · | ·
O=C(COC(=O)c1ccccc1NC(=O)c1ccco1)Nc1ncc(Cl)cc1Cl | 100 | 30 | 107 | i | 1.2 | -3.6 | 5
O=C(Nc1cccc(Cl)c1Cl)c1ccc(-c2ccccc2)cc1 | 99 | · | · | · | · | -3.4 | 13
Cc1nn(Cc2ccc(F)cc2)c(C)c1NC(=O)c1cc(-c2ccco2)on1 | 102 | 0 | 44 | i | 1.1 | -0.5 | -1
C=CCNc1nc(Nc2ccc(-c3nc4ccccc4o3)cc2)nc(N2CCOCC2)n1 | 102 | · | · | i | 0.92 | -1.6 | 0
Cc1nnc(SCC(=O)NNC(=O)CC#N)[nH]c1=O | 131 | 48 | 73 | i | 1 | -0.5 | 1
CCOc1ccc(OCC)c(NC(=O)c2ccc(CNc3c(N4CCOCC4)c(=O)c3=O)cc2)c1 | 104 | · | · | i | 0.91 | -0.7 | -10
COC(=O)c1ccc(/C=C(\C#N)c2ccccn2)cc1 | 97 | 19 | 115 | i | 0.99 | · | -6
CCOc1ccccc1NC(=O)C(C)CC (stereo unspecified) | 99 | · | · | i | 1.1 | · | -5
O=C(CSc1ccc(-c2cccnc2)nn1)N1CCCc2ccccc21 | 87 | -17 | 72 | i | 0.9 | · | 0
COc1ccccc1OCCOc1ccc(/C=C2/C(=N)N3OC(C)=CC3=NC2=O)cc1OC | 91 | -29 | 113 | i | 0.93 | -2.5 | 6
Clc1ccc(OCc2nnc(SCCN3CCCCC3)n2Cc2ccco2)cc1 | 41 | · | · | i | 0.73 | -0.7 | -3
COc1ccc(/C=N/NC(=O)c2ccc(CN3C(=O)c4cccc5cccc3c45)cc2)cc1O | 104 | · | · | i | 0.97 | · | 1
